# PV pol inh – poliovirus RNA polymerase inhibition | AID 588519 | P03300 | % elongation, % (compound at 16.7 µg/mL) | poliovirus polymerase elongation, fluorescence polarization; stronger effect = lower value | 150,000 compounds, 0.66% hits; in the data active means % elongation below about 90%; further: some results filed as inactive read as strong as hits
# Target sequence (P03300 1749-2209 limits assumed): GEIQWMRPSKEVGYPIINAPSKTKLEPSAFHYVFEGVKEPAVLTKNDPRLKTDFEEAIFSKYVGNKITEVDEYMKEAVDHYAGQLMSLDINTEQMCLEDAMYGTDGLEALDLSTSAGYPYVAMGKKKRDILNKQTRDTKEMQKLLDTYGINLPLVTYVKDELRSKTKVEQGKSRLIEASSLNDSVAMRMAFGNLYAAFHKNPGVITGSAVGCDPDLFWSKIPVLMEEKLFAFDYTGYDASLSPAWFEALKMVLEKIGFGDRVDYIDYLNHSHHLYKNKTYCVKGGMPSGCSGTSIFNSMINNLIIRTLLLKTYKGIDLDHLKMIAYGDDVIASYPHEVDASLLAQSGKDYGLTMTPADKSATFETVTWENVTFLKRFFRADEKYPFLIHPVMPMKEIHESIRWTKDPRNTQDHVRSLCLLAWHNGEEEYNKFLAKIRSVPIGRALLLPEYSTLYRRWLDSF
# PV pol inh intensity – further read-out of PV pol inh, marked with its call; % elongation; measured here: total intensity read-out; formula for this scale not given here;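 total fluorescence in place of polarization; lower means less elongation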
# * = called active by the depositor. The list is partial (hit frequency here may not be typical).
# The line under a structure holds: PV pol inh intensity	PV pol inh
- CCN(Cc1ccccc1)C(=O)c1cnn(-c2ccc(F)cc2)c1-n1cccc1
    114.0	112.0
- COc1ccc(-c2c(C#N)c(SCC(=O)Nc3ccc(C)c(C)c3)nc(C)c2C(=O)Nc2ccc(Cl)cc2)cc1
    105.0	106.0
- CCc1ccc(C(=O)c2cn(CC(=O)NCCc3ccc(OC)c(OC)c3)c3nc(C)ccc3c2=O)cc1
    107.0	109.0
- CC(C)n1c(=O)c2oc3ccccc3c2n(Cc2ccccc2F)c1=O
    107.0	105.0
- CC(=O)N1CCCc2cc(S(=O)(=O)N3CCC(C(=O)N(C)C4CCCCC4)CC3)ccc21
    112.0	114.0
- COc1ccc(C)cc1NS(=O)(=O)c1ccc2oc(=O)c3ncn(C)c3c2c1
    111.0	112.0
- CCOC(=O)c1cc2c(=O)n3ccccc3nc2n(Cc2ccco2)c1=NC(=O)c1ccc(Br)cc1
    109.0	102.0
- COc1ccc(-c2cc(C(F)(F)F)n3nc(C)c(-c4ccccc4)c3n2)cc1OC
    116.0	32.0
- CCc1ccccc1NC(=O)Nc1nnc(N2CCCC2)s1
    109.0	108.0
- Cc1ccccc1Nc1c(-c2ccc(N3CCOCC3)cc2)nc2ncccn12
    113.0	107.0
- CN(Cc1ccccc1)c1ccc(-c2nc(-c3cccnc3)no2)cc1[N+](=O)[O-]
    110.0	101.0
- O=C(Nc1ccc(Br)cc1)c1ccc(Br)c(S(=O)(=O)NCc2ccccc2)c1
    111.0	107.0
- CCOc1ccc(NC(=O)NCCN2CCN(c3ccccc3F)CC2)cc1
    108.0	107.0
- COCCN1C(=O)c2oc3ccc(C)cc3c(=O)c2C12C(=O)N(C)c1ccccc12 (stereo not given)
    102.0	105.0
- COc1cc(NC(=O)CSc2nc3ccccc3nc2Cc2ccc(Cl)cc2)cc(OC)c1
    102.0	109.0
- Cn1c(=O)c2c(nc(NCc3ccccc3)n2Cc2ccccc2)n(C)c1=O
    115.0	111.0
- CSc1ccc(CCNC(=O)C2CCN(c3nc4ccccc4nc3C(F)(F)F)CC2)cc1
    108.0	107.0
- CC(=O)c1c(C)oc2c(Cl)cc(NS(=O)(=O)c3cc(C)c(C)cc3C)cc12
    107.0	112.0
- CC1(C)CC(=O)c2cc(-c3nc(-c4ccc(Cl)cc4)cs3)c(=O)[nH]c2C1
    117.0	110.0
- COc1cccc(-c2nc(CS(=O)(=O)CC(=O)NCCc3ccc(Cl)cc3)c(C)o2)c1
    109.0	108.0
- COc1ccc(-c2nc(Cn3c(=O)cc(-c4ccccc4)c4c(C)nn(C)c43)c(C)o2)cc1OC
    110.0	106.0
- COc1ccc(C(=O)Nc2nc3n(n2)C(c2ccccc2)C=C(c2ccccc2)N3)cc1 (stereo not given)
    195.0	106.0
- Cc1nc2cccnc2n1-c1cccc(C(=O)N2CCN(c3ccc(Cl)cc3)CC2)c1
    102.0	106.0
- COc1ccc(NC(=O)c2oc3ccccc3c2NC(=O)C23CC4CC(CC(C4)C2)C3)cc1
    96.0	100.0
- CCCOc1ccc(NC(=O)CC2C(=O)N(c3cccc(C)c3)C(=O)N2CCc2ccncc2)cc1 (stereo not given)
    111.0	111.0
- COc1ccc(CNC(=O)c2ccc(NC(=O)N3CCSc4ncccc43)cc2)cc1OC
    105.0	109.0
- Cc1ccc(NC(=O)C2CCN(c3nc4ccccc4[nH]3)CC2)c(C)c1
    113.0	108.0
- Cc1ccc(C)c(-n2nnc(C(=O)Nc3ccc(Br)cc3)c2C)c1
    117.0	111.0
- CN(C)S(=O)(=O)c1ccc2c(c1)N(CC(=O)N1CCN(c3ccc(F)cc3)CC1)CCS2
    113.0	109.0
- O=C(CC1C(=O)OCCN1Cc1ccccc1)Nc1ccc(F)cc1 (stereo not given)
    100.0	101.0

# Profiles, quoted from the list:
# `Cc1ccc(NC(=O)C2CCN(c3nc4ccccc4[nH]3)CC2)c(C)c1` in the list: PV pol inh intensity: 113.0; PV pol inh: 108.0
# `CSc1ccc(CCNC(=O)C2CCN(c3nc4ccccc4nc3C(F)(F)F)CC2)cc1` in the list: PV pol inh intensity: 108.0; PV pol inh: 107.0

# Going on with the list:
# The line under a structure holds: PV pol inh intensity	PV pol inh
- CCOC(=O)c1c(S(=O)(=O)N2CCCC(C(=O)NCc3ccc(F)cc3)C2)c(C)n(CC)c1C (stereo not given)
    113.0	111.0
- CCC(=O)N1CCc2cc(Br)cc(S(=O)(=O)N3CCN(c4cccc(Cl)c4)CC3)c21
    105.0	103.0
- CCOC(=O)c1ccc(CSc2nnc3cc(C)c4ccccc4n23)cc1
    95.0	103.0
- Cc1cc(NC(=O)COc2ccccc2)cc(-c2nc3ccccc3o2)c1O
    107.0	105.0
- Cc1c(CNC(C)CCc2ccccc2)c(C(=O)O)c(C)n1Cc1ccc(F)cc1 (stereo not given)
    107.0	108.0
- CCc1ccc(CNC(=O)c2cccc(-n3cnc4cccnc43)c2C)cc1
    111.0	107.0
- CCOc1ccc(S(=O)(=O)NCCc2csc3nc(-c4ccc(OC)c(OC)c4)nn23)cc1
    114.0	105.0
- COc1ccc(NC(=O)CSc2nc3ccccc3n2Cc2cccc(OC)c2)cc1
    88.0	108.0
- CCc1ccc(NC(=O)c2ccc(-c3ccccc3)s2)cc1
    100.0	101.0
- CSc1cccc(NC(=O)c2cc3c(COC(C)=O)cnc(C)c3oc2=O)c1
    99.0	105.0
- CC(C)CCNC(=O)c1ccc2c(c1)N(C)C(=O)c1ccccc1S2
    113.0	108.0
- COc1ccc(-n2ccn(Cc3ccccc3C)c(=O)c2=O)cc1
    114.0	118.0
- Cc1ccc(CSc2cn(CCNC(=O)c3cccs3)c3ccccc23)cc1
    108.0	106.0
- CC(=O)c1ccc(NC(=O)c2sc3nc4c(cc3c2N)N2CCC4CC2)cc1
    104.0	102.0
- CCCC(=O)N1c2ccccc2-c2nnc(SC)nc2OC1c1sccc1C (stereo not given)
    112.0	110.0
- Cc1cccc(NC(=O)C(=O)NCC(c2ccc3c(c2)OCO3)N2CCOCC2)c1C (stereo not given)
    107.0	107.0
- CCOC(=O)c1cnc2c(Cl)cc(Cl)cc2c1Nc1ccccc1OC
    110.0	107.0
- COc1cccc(Cn2c(CNS(=O)(=O)c3ccc(Cl)s3)nc3cccnc32)c1
    111.0	105.0
- Cc1ccc(-n2c(SCC(=O)Nc3cccc(F)c3)nc3c(oc4ccccc43)c2=O)cc1C
    105.0	102.0
- CC(=O)c1c(C)oc2ccc(NS(=O)(=O)c3ccc(C(C)C)cc3)cc12
    110.0	105.0
- COc1ccc(OC)c(NC(=O)Cn2cc(C(=O)c3cccs3)c3ccccc32)c1
    110.0	107.0
- Cn1c(=O)c(=O)n(C)c2cc(C(=O)NCc3ccccc3Cl)ccc21
    110.0	110.0
- Clc1ccc(-c2nnn3c2nc(NC2CCCCC2)c2ccccc23)cc1
    109.0	108.0
- COC(=O)c1ccccc1NC(=O)Cn1c(=O)n(CCCC(=O)NCc2ccccc2Cl)c(=O)c2ccccc21
    102.0	106.0
- CCCS(=O)(=O)c1ncc(Cl)c(C(=O)Nc2c(C(=O)c3ccccc3)oc3ccccc23)n1
    115.0	122.0
- N#Cc1ccccc1S(=O)(=O)N1CCCC(c2nc3c(nnn3Cc3cccc(Cl)c3)c(=O)[nH]2)C1 (stereo not given)
    107.0	106.0
- COCCCNC(=O)C1CCCN(c2nn3cc(-c4ccc(C)cc4)nc3s2)C1 (stereo not given)
    107.0	115.0
- Cc1ccc2occ(CC(=O)Nc3ccc(S(=O)(=O)N4CCCC(C)C4)cc3)c2c1 (stereo not given)
    116.0	116.0
- Cn1c(=O)c2c(nc(CN3CCN(c4ccccc4F)CC3)n2Cc2ccccc2F)n(C)c1=O
    106.0	104.0
- Cc1ccc(C)c(N2CCN(C(=O)Cn3nc(C)c4sc5ccccc5c4c3=O)CC2)c1
    113.0	109.0
- COc1ccccc1CNC(=O)c1cn(C)c2ccc(S(=O)(=O)N3CCC(C)CC3)cc2c1=O
    109.0	106.0
- Cc1ccc(C(=O)Nc2ccc(S(=O)(=O)N3CCC(c4nc5ccccc5s4)CC3)cc2)cc1
    110.0	105.0
- Cc1cccc(N2CCN(c3c(CN4CCCC4)c(=O)oc4ccccc34)CC2)c1C
    103.0	101.0
- O=C(Cc1ccc(NC(=O)N2CCCCc3ccccc32)cc1)NCc1cccc(Br)c1
    112.0	106.0
- CCCCSCCCNC(=O)c1cc(-c2cccnc2)nc2ccc(S(=O)(=O)N3CCC(C)CC3)cc12
    107.0	108.0
- COc1ccc(N2CCN(Cc3cccn3-c3nnc(N4CCN(C5CCCCC5)CC4)s3)CC2)cc1
    105.0	100.0
- CCOc1ccc(NC(=O)Cn2cc(C(=O)c3ccc(C)cc3)c(=O)c3cc4c(cc32)OCO4)cc1
    114.0	107.0
- COC(=O)Cn1c(=NC(=O)c2ccc3c(c2)OCCO3)sc2ccccc21
    113.0	113.0
- COc1ccc(CNC(=O)CCCn2ccc3cc(S(=O)(=O)N4CCCC4)ccc32)cc1
    112.0	113.0
- CC1=C(C(=O)Nc2cccnc2)C(c2ccccc2)n2nc(SCc3ccccc3F)nc2N1 (stereo not given)
    98.0	104.0
- COc1cc(C(=O)Nc2sc3c(c2C(N)=O)CCC(C)C3)cc(OC)c1OC (stereo not given)
    108.0	104.0
- CCc1nnc(SCc2nc(-c3ccccc3)oc2C)c2cc3sccc3n12
    109.0	104.0
- CCCCCn1c(=O)[nH]c2cc(C(=O)NCc3ccc(OC)cc3)ccc2c1=O
    107.0	106.0
- O=S(=O)(NCCSc1nnnn1-c1ccccc1)c1ccc(F)cc1
    110.0	110.0
- O=S(=O)(NCCc1ccc(Cl)cc1)c1ccc(N2CCCCS2(=O)=O)cc1
    107.0	105.0
- COc1ccc(-n2c(=O)c3c4c(sc3n(Cc3ccccc3)c2=O)CN(C(C)=O)CC4)cc1OC
    110.0	102.0
- Cc1ccc(Cl)cc1Nc1nn2c(=O)c3ccc(C(=O)N4CCCC(C)C4)cc3nc2s1 (stereo not given)
    93.0	101.0
- COc1cc(C2C(C(=O)Nc3ccccc3)=C(C)Nc3nnnn32)cc(OC)c1OC (stereo not given)
    109.0	110.0
- CCOC(=O)C1CCC(CN(Cc2ccccc2)S(=O)(=O)c2ccc(Br)cc2)CC1 (stereo not given)
    110.0	105.0
- Cc1oc(-c2cccc(Cl)c2)nc1CS(=O)(=O)CC(=O)NCc1ccccc1Cl
    101.0	100.0
- Cc1ccc(-n2ncc3c(N4CCCCCC4)ncnc32)cc1C
    96.0	104.0
- COc1ccc(Cl)cc1NC(=O)CSc1nc2c([nH]c3ccccc32)c(=O)n1-c1ccccc1
    100.0	100.0
- CCc1ccc(-c2nc3c(c(SCc4ccccc4)n2)Cc2c(CO)cnc(C)c2O3)cc1
    107.0	102.0
- CC(C)c1ccc(Nc2ncnc3onc(-c4ccc(F)cc4)c23)cc1
    107.0	103.0
- COc1ccc(C2CC(=O)NC(NC(=O)c3ccc(Br)cc3)=N2)c(OC)c1OC (stereo not given)
    109.0	107.0
- O=C(CCCCn1c(=O)c2ccccc2n(CC(=O)Nc2cccc(F)c2)c1=O)NCc1ccccc1Cl
    107.0	108.0
- O=C(CSC1=Nc2ccccc2C2=NC(Cc3ccccc3)C(=O)N12)Nc1cccc(Cl)c1 (stereo not given)
    108.0	105.0
- Cc1ccc(CNC(=O)Cn2c(=O)cc(-c3ccccc3)c3c(C)nn(C)c32)cc1
    110.0	105.0

# Compounds listed so far with a Cl atom (20):
# The line under a structure holds: PV pol inh intensity	PV pol inh
- COc1ccc(-c2c(C#N)c(SCC(=O)Nc3ccc(C)c(C)c3)nc(C)c2C(=O)Nc2ccc(Cl)cc2)cc1
    105.0	106.0
- COc1cc(NC(=O)CSc2nc3ccccc3nc2Cc2ccc(Cl)cc2)cc(OC)c1
    102.0	109.0
- CC(=O)c1c(C)oc2c(Cl)cc(NS(=O)(=O)c3cc(C)c(C)cc3C)cc12
    107.0	112.0
- CC1(C)CC(=O)c2cc(-c3nc(-c4ccc(Cl)cc4)cs3)c(=O)[nH]c2C1
    117.0	110.0
- COc1cccc(-c2nc(CS(=O)(=O)CC(=O)NCCc3ccc(Cl)cc3)c(C)o2)c1
    109.0	108.0
- Cc1nc2cccnc2n1-c1cccc(C(=O)N2CCN(c3ccc(Cl)cc3)CC2)c1
    102.0	106.0
- CCC(=O)N1CCc2cc(Br)cc(S(=O)(=O)N3CCN(c4cccc(Cl)c4)CC3)c21
    105.0	103.0
- CCOC(=O)c1cnc2c(Cl)cc(Cl)cc2c1Nc1ccccc1OC
    110.0	107.0
- COc1cccc(Cn2c(CNS(=O)(=O)c3ccc(Cl)s3)nc3cccnc32)c1
    111.0	105.0
- Cn1c(=O)c(=O)n(C)c2cc(C(=O)NCc3ccccc3Cl)ccc21
    110.0	110.0
- Clc1ccc(-c2nnn3c2nc(NC2CCCCC2)c2ccccc23)cc1
    109.0	108.0
- COC(=O)c1ccccc1NC(=O)Cn1c(=O)n(CCCC(=O)NCc2ccccc2Cl)c(=O)c2ccccc21
    102.0	106.0
- CCCS(=O)(=O)c1ncc(Cl)c(C(=O)Nc2c(C(=O)c3ccccc3)oc3ccccc23)n1
    115.0	122.0
- N#Cc1ccccc1S(=O)(=O)N1CCCC(c2nc3c(nnn3Cc3cccc(Cl)c3)c(=O)[nH]2)C1 (stereo not given)
    107.0	106.0
- O=S(=O)(NCCc1ccc(Cl)cc1)c1ccc(N2CCCCS2(=O)=O)cc1
    107.0	105.0
- Cc1ccc(Cl)cc1Nc1nn2c(=O)c3ccc(C(=O)N4CCCC(C)C4)cc3nc2s1 (stereo not given)
    93.0	101.0
- Cc1oc(-c2cccc(Cl)c2)nc1CS(=O)(=O)CC(=O)NCc1ccccc1Cl
    101.0	100.0
- COc1ccc(Cl)cc1NC(=O)CSc1nc2c([nH]c3ccccc32)c(=O)n1-c1ccccc1
    100.0	100.0
- O=C(CCCCn1c(=O)c2ccccc2n(CC(=O)Nc2cccc(F)c2)c1=O)NCc1ccccc1Cl
    107.0	108.0
- O=C(CSC1=Nc2ccccc2C2=NC(Cc3ccccc3)C(=O)N12)Nc1cccc(Cl)c1 (stereo not given)
    108.0	105.0
